Compound activity as filed in PubChem BioAssay.
Bm FixLJ act: activators of Burkholderia fixLJ two-component system, primary screen, B. multivorans, GFP reporter. B. multivorans fixK-promoter GFP reporter, 18 h; active compounds read high. 0.3% of 29,000 active. z-score (test concentration not listed). AID 1918990, 2023;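 active = replicate mean overnight rise in green fluorescent reporter signal, 3 or more SD over negative controls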;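 note: score is relative to vehicle wells of the plate; 300 nL library stock went into each well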
Numbers without * were called inactive. A portion of the library; count on the stated rates, not on these rows.

SMILES	Bm FixLJ act
Cc1cc(C)c2oc(C(=O)NCCc3ccc(S(N)(=O)=O)cc3)cc(=O)c2c1	-1.9
CNC(=O)CN1CCc2[nH]nc(C(c3ccccc3)c3ccccc3)c2C1	-1.8
Cc1cccc(NC(=O)C2CCN(c3nnc(-n4c(C)ccc4C)s3)CC2)c1C	0.75
CC(=O)Nc1ccc(NC(=O)c2ccc3c(c2)NC(=O)c2ccccc2S3)cc1	1.4
O=C1CCCc2[nH]c(=O)c(-c3nc(-c4cccc([N+](=O)[O-])c4)cs3)cc21	-0.23
O=C(NCc1nc(C2CCCCC2)no1)c1nc2ccccc2[nH]c1=O	-0.47
CC1CCCCN1CCNC(=O)c1ccc(Cn2c(SCc3ccccc3)nc3cccnc32)cc1 (stereo unspecified)	-0.83
Cc1ccc(CN2CCSc3ccc(C(=O)Nc4ccc(C)cc4)cc32)cc1	-1.6
CCCN(C(=O)c1cc2c(=O)[nH]c3ccc(C)cc3c2s1)c1ccc(CC)cc1	-1.1
O=C(Nc1ccc(Oc2ccccc2)cc1)C1CCN(S(=O)(=O)c2ccc(Cl)cc2)CC1	-2
CCc1ccc2[nH]cc(S(=O)(=O)c3ccc(C(C)C)cc3)c(=O)c2c1	-0.67
CCOc1ccc(CCNC(=O)C(C)n2nc(C)n3c(cc4occc43)c2=O)cc1OCC (stereo unspecified)	-0.17
Fc1ccc(C(Nc2ccccc2Cl)c2nnc(-c3ccccc3Cl)o2)cc1 (stereo unspecified)	2.1
CN1CCC(CCC(=O)N2CCN(c3ccnc4nncn34)CC2)CC1	0
CCN(CC)CCCNC(=O)c1nn(-c2ccc(C)cc2)c(=O)c2c1c1ccccc1n2C	-0.9
CCC(C(=O)Nc1ccccc1F)N1C(=O)CN=C(c2ccccc2)c2ccccc21 (stereo unspecified)	-2.3
CCC(C)Nc1sc(S(=O)(=O)CC)nc1S(=O)(=O)c1ccc(C)cc1 (stereo unspecified)	-0.81
CCOC(=O)COc1ccc(F)cc1C(=O)c1ccn2nc(-c3ccc(C)cc3)cc2n1	0.08
CC(C)NC(=O)CN1CCC(c2nnc(CN3CCOCC3)n2C)CC1	-0.82
Cc1cc(N2CCC(C)CC2)nc2ccc(NC(=O)CCC(=O)N3CCN(c4cccc(C(F)(F)F)c4)CC3)cc12	-1.7
COc1cc(C)c(C)cc1S(=O)(=O)NCCCN(C)C1CCCC1	-1.4
Cc1nn(CC(=O)NCC2(Cn3ccnc3)CC2)cc1Cl	-0.54
Cc1ccc(Nc2c3c(nc4nncn24)CCC3)c(C)c1	0.15
CCCN1CCCn2nc(CNC(=O)Cc3ccc(Cl)cc3)cc2C1	-0.75
CCOC(=O)C1(C)C=C(Nc2ccc(C)cc2)C(=O)N1c1ccccc1 (stereo unspecified)	-1.1

Rewritten with bars between the fields: entries from further up.
SMILES | Bm FixLJ act
CCN(CC)CCCNC(=O)c1nn(-c2ccc(C)cc2)c(=O)c2c1c1ccccc1n2C | -0.9
CCc1ccc2[nH]cc(S(=O)(=O)c3ccc(C(C)C)cc3)c(=O)c2c1 | -0.67
CCC(C)Nc1sc(S(=O)(=O)CC)nc1S(=O)(=O)c1ccc(C)cc1 (stereo unspecified) | -0.81
CCCN(C(=O)c1cc2c(=O)[nH]c3ccc(C)cc3c2s1)c1ccc(CC)cc1 | -1.1
Fc1ccc(C(Nc2ccccc2Cl)c2nnc(-c3ccccc3Cl)o2)cc1 (stereo unspecified) | 2.1
Cc1cc(C)c2oc(C(=O)NCCc3ccc(S(N)(=O)=O)cc3)cc(=O)c2c1 | -1.9

Following part.
SMILES	Bm FixLJ act
CCc1ccc(NC(=O)[C@H](CSCc2ccccc2)N2Cc3ccccc3C2=O)cc1	0.2
Cc1nc(SCC(=O)Nc2nsc(-c3ccc(C(C)(C)C)cc3)n2)c2c3c(sc2n1)CCCC3	-0.57
Cc1cc(C)cc(NC(=O)c2nnn(Cc3cccc(Br)c3)c2N)c1	-0.24
O=C(NC1CCN(Cc2ccccc2)CC1)c1ccc(Cn2c(=O)c3ccccc3n(Cc3cccc(F)c3)c2=O)cc1	-1.9
COc1ccc(Cl)cc1NC(=O)Cn1ncc2c3ccccc3n(Cc3ccccc3)c2c1=O	-1.9
COc1cccc(NS(=O)(=O)c2ccc3c(c2)n(C)c(=O)n3C)c1	1.5
O=C(CCCCCn1c(=O)[nH]c2ccsc2c1=O)NCc1ccccc1	0.47
COc1ccc(CCN(C)Cc2nc3sc(C)cc3c(=O)[nH]2)cc1OC	0.69
Brc1cccc(CNCCSc2nnnn2-c2ccccc2)c1	-1.9
CCc1ccc(-n2c(N3CCN(c4ccc(F)cc4)CC3)nc3ccccc3c2=O)cc1	-0.03
CCc1ccc(CN2CCc3c(C(=O)N4CCCC4CO)csc3C2)nc1 (stereo unspecified)	1.3
COCCCN1CC2(CCC1=O)CCN(C(=O)Cc1ccc(O)c(F)c1)CC2	-1.6
CCc1ccccc1N(c1nc(-c2ccc(OC)c(OC)c2)no1)c1nc(-c2ccc(OC)c(OC)c2)no1	-1.9
COCCCNC(=O)CCC(=O)NNc1nc2ccccc2c2nc(C)nn12	-0.04
O=S(=O)(c1ccccc1)c1nc(-c2cccs2)oc1SCc1ccccc1F	-1
CCc1ccc(C(=O)c2cn(CC(=O)Nc3ccc4c(c3)OCCO4)c3ccc(F)cc3c2=O)cc1	0.27
CCOc1ccccc1NC(=O)Cn1c(=O)n(-c2ccc(C)cc2)c(=O)c2c1cnn2C	1.1
Cc1ccc(CSCCNC(=O)CN(c2cccc(C)c2C)S(=O)(=O)c2ccccc2)cc1	0.74
Cc1ccc(C)c(NC(=O)C2CCCN(S(=O)(=O)c3c(C)noc3/C=C/N(C)C)C2)c1 (stereo unspecified)	0.32
CCCOc1ccc(C(=O)N(Cc2ccc(N(C)C)cc2)CC2CCCO2)cc1 (stereo unspecified)	-0.66
O=C(NCCN1CCCOC1=O)C1CCCCN1C(=O)c1ccccc1 (stereo unspecified)	-3.6
CCc1ccc(S(=O)(=O)c2cn(C)c3cc(F)c(F)cc3c2=O)cc1	-0.61
Cc1cccc(NC(=O)CSC2=Nc3ccccc3C3=NC(CCC(=O)NCc4ccco4)C(=O)N23)c1 (stereo unspecified)	-2.2
COCCCNC(=O)CCCCn1c(=O)c2ccccc2n(CC(=O)Nc2ccc(C)cc2C)c1=O	-0.37
COc1cc(C(=O)N2CCNC(=O)C2CC(=O)Nc2ccc(C)c(C)c2)cc(OC)c1OC (stereo unspecified)	0.84

Laid out differently: 2 of the compounds above.
COCCCN1CC2(CCC1=O)CCN(C(=O)Cc1ccc(O)c(F)c1)CC2
  Bm FixLJ act: -1.6
CCc1ccc(CN2CCc3c(C(=O)N4CCCC4CO)csc3C2)nc1 (stereo unspecified)
  Bm FixLJ act: 1.3

Additional records follow.
SMILES	Bm FixLJ act
CCn1c(C(=O)N2CCC(C(=O)N3CCN(c4cccc(C)c4C)CC3)CC2)cc2sccc21	-0.57
Cc1ccc(CCNC(=O)CSCc2nc(-c3ccc(C)cc3)oc2C)cc1	-1.4
O=C(CSc1nnc(CNC(=O)c2ccccc2)n1-c1ccc(F)cc1)Nc1ccccc1F	-1.1
COc1ccc(C(=O)c2oc3ccccc3c2NC(=O)c2nc(SC)ncc2Cl)cc1Cl	-0.97
CC(C)(C)c1ccc(C(=O)N2CC(=O)Nc3ccc(F)cc3C2c2ccc(F)cc2)cc1 (stereo unspecified)	-0.07
COc1ccc(NC(=O)CSc2nc3ccncc3[nH]2)c(OC)c1	0.42
N#C/C(=C/c1cn(Cc2ccccc2Cl)c2ccccc12)C(=O)Nc1cccc(Cl)c1	0.25
CCOc1cccc(C(=O)N2CC(O)C(Cc3cnccn3)C2)c1 (stereo unspecified)	-1.4
CO/N=C(/C(=O)NC1C(=O)N2C(C(=O)OC(C)OC(C)=O)=C(COC(N)=O)CSC12)c1ccco1 (stereo unspecified)	-0.54
Cc1oc(-c2ccccc2Cl)nc1CS(=O)(=O)CC(=O)NC(C)CCc1ccccc1 (stereo unspecified)	-1.1
Cc1ccc(O)cc1	0.89
COc1nc(C)c(C(=O)N(C)Cc2cccc3cnccc23)s1	-2.2
CCOc1ccc(Br)cc1C1C(C(=O)Nc2ccccc2OC)=C(C)Nc2nnnn21 (stereo unspecified)	-2.5
CN1CCC(OCCCNC(=O)c2cccc(-c3cccc(C#N)c3)c2)CC1	-1.4
CC(C)c1ccc(C(=O)Nc2ccc(-c3nc4ccccc4s3)c(Cl)c2)cc1	2.5
CCN1C(=O)c2ccccc2S(=O)(=O)c2ccc(C(=O)NCc3ccc(C)cc3)cc21	-0.9
Cc1ccc(NC(=O)Cn2cc(S(=O)(=O)N3CCC(C)CC3)c3ccccc3c2=O)c(Br)c1	-0.95
O=C(c1cccc(C(F)(F)F)c1)N1CCc2c(ncnc2N2CCOCC2)C1	-0.27
COC(=O)COc1ccc(Oc2nc(NC(C)(C)C)nc(N(C)C)n2)nn1	0.2
CCc1ccc(-c2nc3ccc(Br)cc3c(C(=O)O)c2C)s1	-3.2
CCOC(=O)c1cnc2c(ccc3ccccc32)c1Nc1cccc(Cl)c1	-1.9
CCCCN(CC)CCCNC(=O)c1cn(C)c2ccc(S(=O)(=O)N(C)C3CCCCC3)cc2c1=O	-1.3
CCOc1ccc(NC(=O)NC(C)c2c(-n3cccc3)sc(C)c2C)cc1 (stereo unspecified)	-0.06
CCc1cccc(CC)c1NC(=O)Cn1nnc2sc3c(c2c1=O)CCCC3	-0.19
O=C(Nc1ccnn1C1CCN(C(=O)CO)CC1)c1ccccc1	-0.91
Additional results:
SMILES	Bm FixLJ act
COC(=O)c1cccnc1-n1c(=O)c2cccnc2n(CC(=O)Nc2cccc(C(F)(F)F)c2)c1=O	-0.27
COc1ccc(OC)c(NC(=O)C2CCCN(S(=O)(=O)c3c(C)nn(C)c3C)C2)c1 (stereo unspecified)	-0.48
CCCCN(CCCC)S(=O)(=O)c1ccc(NC(=O)c2c(-c3ccccc3)noc2C)cc1	-0.48
COc1ccc(C(=O)Nc2ccc3nc4c(c(Nc5ccccc5OC)c3c2)CCCC4)c(OC)c1	-0.29
C1CCc2nnnn2CC1	-0.29
CCCCNC(=O)CCCn1c(=O)c2ccccc2n(Cc2ccccc2C)c1=O	-1
CN(C)Cc1nnc(C2CCN(C(=O)c3cscn3)CC2)n1C1CC1	-0.95
NCCOc1cccc(CC(=O)N2CCCN(C(=O)C3CCCO3)CC2)c1 (stereo unspecified)	-0.5
COc1ccc(CCNC(=O)CCn2c(=O)c3ccccc3n(CC(=O)Nc3ccc(C)cc3C)c2=O)cc1OC	1.1
OCCCn1c(-c2ccc(F)cc2)csc1=Nc1ccc(F)cc1	-0.46
COc1ccc(C2=C(N3CCN(c4cc(Cl)ccc4C)CC3)c3ccccc3C2=O)cc1	-0.7
Cc1cccc(N2CCN(C(=O)CCCn3c(=O)[nH]c4ccsc4c3=O)CC2)c1C	-0.37
Cc1ccc(-c2nc(CS(=O)(=O)CC(=O)NCCc3ccccc3)c(C)o2)cc1	-0.74
CN(C(=O)C(=O)Nc1ccc2nc3n(c(=O)c2c1)CCCCC3)c1cccc(C(F)(F)F)c1	-3
CCc1noc(CN2CCC(O)[C@@](Cc3ccccc3)(C(=O)O)C2)n1 (stereo partly specified)	-0.31
CCOc1ccc(NC(=O)CC2C(=O)N(c3ccc(F)cc3)C(=O)N2CCc2sccc2C)cc1 (stereo unspecified)	-0.34
CCCn1cnnc1C(C)NC(=O)Cc1ccc(O)c(Cl)c1 (stereo unspecified)	-2.3
CCOc1ccc(NC(=O)N2CCC(C(N)=O)(N3CCCCC3)CC2)cc1	-1.3
CCC(C)C(=O)Nc1cccc(C(=O)NCCN2CCc3ccccc32)c1 (stereo unspecified)	1.2
CSCc1noc(CNC2CCN(c3cccc(C)c3C)CC2)n1	-0.23
Cc1cc(C)nc(CNC(=O)Nc2ccc(F)c(NC(=O)C(C)C)c2)n1	-1.2
S=c1nc[nH]c2nc[nH]c12	-1.8
O=C1CCCN1CC1CCN(C(=O)c2ccc(-c3cn[nH]c3)nc2)CC1	0.25
CC(=O)c1ccc(NC(=O)CN(C)S(=O)(=O)c2cccc3nsnc23)cc1	-0.9
CCc1cc2c(cc3c(=O)n(CC(=O)NCCc4ccc(OC)c(OC)c4)ncn32)s1	-0.53
Following part:
SMILES	Bm FixLJ act
Cc1cccc(Nc2nc(Nc3cccc(C)c3)nc(N3CCOCC3)n2)c1	-0.5
Cc1ccc(-c2noc(CNC(=O)c3ccc(Br)o3)n2)cc1	-1
Cc1cc(C)cc(C(=O)N(Cc2nc(-c3ccc(Cl)cc3)no2)C(C)C)c1	1.8
CNC(=O)c1cccc(NCC2(c3ccccc3)CCOCC2)n1	-1.1
CCc1ccc(-n2nnc(-c3nsc(NC(=O)c4ccccc4Cl)n3)c2C)cc1	-1.3
Cc1ccc(-n2c(=O)c3c(cnn3C)n(CC(=O)Nc3cc(C)ccc3C)c2=O)cc1	0.65
Cn1nccc1CCC(=O)N1CC2COC[C@]2(C(=O)NC2CCCCC2)C1 (stereo partly specified)	-2.1
Cc1ccc2c(c1)C(c1ccc(F)cc1)N(C(=O)COc1ccc(Cl)cc1Cl)CC(=O)N2 (stereo unspecified)	0.96
CCc1ccc(S(=O)(=O)c2nnn3c2nc(N2CCC(C(N)=O)CC2)c2cc(Cl)ccc23)cc1	-1.1
Cc1cccc(OCc2nc(C#N)c(NCc3ccccc3Cl)o2)c1	-0.55
CC(C)CCn1c(=O)c2cccnc2n(CC(=O)Nc2ccccc2)c1=O	-0.16
CC(C)CCC(=O)N1CCN(C(=O)c2ccccn2)C2CS(=O)(=O)CC21 (stereo unspecified)	-2.4
COc1ccc(Nc2c(-c3ccccn3)nc3ccc(Cl)cn23)cc1	1.5
Cc1ccccc1Nc1c(-c2ccc(Cl)cc2)nc2c(C)cccn12	-0.93
Cc1ccccc1OCC(=O)N(Cc1ccc(N(C)C)cc1)CC1CCCO1 (stereo unspecified)	0.11

Already shown: 4 of the compounds above.
SMILES	Bm FixLJ act
Cc1cc(C)cc(C(=O)N(Cc2nc(-c3ccc(Cl)cc3)no2)C(C)C)c1	1.8
CNC(=O)c1cccc(NCC2(c3ccccc3)CCOCC2)n1	-1.1
CCc1ccc(-n2nnc(-c3nsc(NC(=O)c4ccccc4Cl)n3)c2C)cc1	-1.3
Cc1ccc(-n2c(=O)c3c(cnn3C)n(CC(=O)Nc3cc(C)ccc3C)c2=O)cc1	0.65
